Screens as filed in PubChem BioAssay.
VDR inh – inhibitors of human vitamin D receptor; Potency, µM, inactives show max response, negative = inhibition, usual class: inhibitors; VDR-SRC2-3 peptide fluorescence polarization, 2 h; P11473; 400,000 compounds, 0.93% hits; active means well fitted inhibition curve with a large enough effect; inconclusive means small, poorly fitted or top-dose-only effect, or another doubt; inactive means no such curve, though single readings can be large or run the other way; further: series mostly up to about 120 µM
Target sequence (P11473 whole entry, looked up): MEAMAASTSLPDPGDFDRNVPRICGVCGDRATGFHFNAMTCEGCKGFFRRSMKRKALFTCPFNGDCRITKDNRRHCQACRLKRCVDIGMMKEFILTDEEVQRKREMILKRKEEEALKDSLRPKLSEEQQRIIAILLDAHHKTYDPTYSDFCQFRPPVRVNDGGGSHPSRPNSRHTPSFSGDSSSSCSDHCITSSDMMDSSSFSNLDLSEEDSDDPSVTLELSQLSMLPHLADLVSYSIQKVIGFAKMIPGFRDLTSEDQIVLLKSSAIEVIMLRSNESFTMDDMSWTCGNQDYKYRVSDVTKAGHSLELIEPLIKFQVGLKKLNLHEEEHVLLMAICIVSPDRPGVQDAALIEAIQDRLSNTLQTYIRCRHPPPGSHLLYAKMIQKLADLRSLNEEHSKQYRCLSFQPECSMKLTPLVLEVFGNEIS
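Measured by FP: displacement of SRC2-3 coactivator peptide from VDR by library compounds, following a two-hour ambient incubation.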
Active calls of the source: *; ? = inconclusive; & = joins results of further samples; [ ] = dose if it differs, or a comment. On the % scale 0 is the no-effect control and ±100 the full control effect; potency means the concentration at half of the fitted maximal effect.

1	COc1cc(NC(=O)C2CCCN(S(=O)(=O)c3ccc4c(c3)CCCC(=O)N4)C2)cc(OC)c1 (stereo not drawn)
  VDR inh: 16%

2	Cc1cc(C)n2nc(SCC(=O)N3CCOCC3)nc2n1
  VDR inh: 15%

3	COc1ccc(N(C(=O)CCC(=O)Nc2cc(C)on2)C(C(=O)NC2CCCC2)c2ccco2)cc1 (stereo not drawn)
  VDR inh: 2%

4	CCS(=O)(=O)c1ccc2oc(SCC(=O)Nc3ccc(OC)c(OC)c3)nc2c1
  VDR inh: -15%

5	COc1ccc(C(C)=O)cc1CN1C(=O)NC(CC(C)C)C1=O (stereo not drawn)
  VDR inh: -2%

6	COC(=O)c1ccc(C2c3c(-c4ccccc4O)n[nH]c3C(=O)N2Cc2ccncc2)cc1 (stereo not drawn)
  VDR inh: 15%

7	CN(C)c1ccc(S(=O)(=O)N2CCCCC2)cc1NC(=O)CCNC(=O)c1ccc(Cl)cc1
  VDR inh: -11%

8	Cn1c(=O)c2nc(SCC(=O)Nc3cc(Cl)cc(Cl)c3)n(C)c2n(C)c1=O
  VDR inh: 0%

9	O=[N+]([O-])c1ccc(Oc2cccnc2)nc1
  VDR inh: -3%

10	Fc1ccc(-c2ccc3c(c2)C2CC3CCN2)cc1 (stereo not drawn)
  VDR inh: -6%

11	COC(=O)N1CCC[C@@]2(CCN(c3ncccn3)C2)C1
  VDR inh: -2%

12	O=C(C[C@@H]1C/C=C\CCCC(=O)OC[C@@H](c2ccccc2)NC1=O)NCCO
  VDR inh: 10%

13	COc1ccccc1CC(NC(C)=O)C(=O)NC1CCN(C(=O)c2ccc(C)cc2)CC1 (stereo not drawn)
  VDR inh: -9%

14	C[C@H](CO)N1C[C@H](C)[C@@H](CN(C)S(C)(=O)=O)Oc2ccc(NC(=O)c3ccncc3)cc2C1=O
  VDR inh: -19%

15	O=C1CSC(=S)N1Cc1cccnc1
  VDR inh: 60%[activator]

16	O=C(COc1cc2oc(=O)c3c(c2cc1Cl)CCC3)Nc1ccccn1
  VDR inh: -6%

17	COc1ccnc(Oc2ccc(F)cc2)c1C(=O)N/C=N/OCc1c(Cl)cccc1Cl
  VDR inh: 0%

18	O=C(NNc1ccc(Cl)cc1)c1c(F)cccc1Cl
  VDR inh: -7%

19	COc1ccc(N2CCN(C(=O)CSc3nnc(-c4ccco4)n3C)CC2)cc1
  VDR inh: 11%

20	COc1ccc([C@@H]2C[C@H](c3ccccc3)Oc3cc(C)cc(C)c32)cc1
  VDR inh: -12%

21	COCC(=O)Nc1cc(C)cn(Cc2ccc(F)cc2)c1=O
  VDR inh: -6%

22	Cc1cc(C)c(C)c(S(=O)(=O)NC(C(=O)O)C(C)C)c1C (stereo not drawn)
  VDR inh: 18%

23	Cc1ccc(OC(=O)CCC(=O)Nc2ccc(S(=O)(=O)Nc3cc(C)on3)cc2)cc1
  VDR inh: 2%

24	O=C(CN1C(=O)CCC1=O)Nc1ccc2c3c(cccc13)CC2
  VDR inh: 6%

25	Cc1ccc(S(=O)(=O)N2CCN(C(=O)CN3C(=O)c4ccc([N+](=O)[O-])cc4C3=O)CC2)cc1C
  VDR inh: -21%

Quoted from the results shown, 3 compounds:
1	COc1cc(NC(=O)C2CCCN(S(=O)(=O)c3ccc4c(c3)CCCC(=O)N4)C2)cc(OC)c1 (stereo not drawn)
  VDR inh: 16%

2	Cc1cc(C)n2nc(SCC(=O)N3CCOCC3)nc2n1
  VDR inh: 15%

3	COc1ccc(N(C(=O)CCC(=O)Nc2cc(C)on2)C(C(=O)NC2CCCC2)c2ccco2)cc1 (stereo not drawn)
  VDR inh: 2%

Following part.
26	Cc1ccccc1Nc1c(-c2ccc(Cl)s2)nc2c(C)cccn12
  VDR inh: -10%

27	Cc1ccc(-c2nn(-c3ccccc3)cc2NC(=O)CCl)cc1
  VDR inh: -3%

28	CCc1nc(SCC(=O)NNC(=O)c2ccc(OC)cc2)c2ccccc2n1
  VDR inh: -18%

29	O=C(Nc1ccccc1Cl)c1ccc2nsnc2c1
  VDR inh: -12%

30	C/C(=N\NC(=O)c1c(Cl)cnn1C)c1cccc(NC(=O)COc2ccccc2)c1
  VDR inh: 11%

31	COc1ccc(NS(=O)(=O)c2cccc(C(=O)NCCc3ccc(S(N)(=O)=O)cc3)c2)cc1
  VDR inh: 3%

32	CC(=O)NCCc1ccc(O)cc1
  VDR inh: 6%

33	COc1cc(C(=O)Nc2c(C(=O)O)[nH]c3ccc(C)cc23)cc(OC)c1OC
  VDR inh: 12%

34	CCC(=O)NC(c1ccc(C)cc1)c1cc([N+](=O)[O-])c2cccnc2c1O (stereo not drawn)
  VDR inh: -6%

35	COc1cccc(C(=O)Nc2ccc(-c3nc4ccc(C)cc4s3)cc2)c1OC
  VDR inh: 5%

36	Cc1cc(C(=O)Nc2ccc(-n3c(C)nc4ccccc4c3=O)cc2)ccc1[N+](=O)[O-]
  VDR inh: -1%

37	CCc1ccc(Nc2nnc(SCC(=O)Nc3cccc(S(=O)(=O)NC4=NCCCCC4)c3)s2)cc1
  VDR inh: -14%

38	CCOc1ccc(Nc2nc(Cc3nnc(SCC(=O)NCC4CCCO4)n3C)cs2)cc1 (stereo not drawn)
  VDR inh: -15%

39	CC1(C)Cc2c(ccc3ccccc23)/C(=C/C#N)N1
  VDR inh: -7%

40	Cc1ccsc1CNn1cnnc1SCc1ccc(Cl)cc1
  VDR inh: -3%

41	COc1cccc(-c2nn(C)c3sc(C(=O)N4CCN(c5ccccn5)CC4)cc23)c1
  VDR inh: -2%

42	CC(C)(C)C1=C(C#N)C(c2ccncc2)C(C#N)=C(N)O1 (stereo not drawn)
  VDR inh: -12%

43	c1ccc(-c2nc(-n3ccnc3)nc(-n3ccnc3)n2)cc1
  VDR inh: 10%

44	Cc1ccc(-n2c(SCC(=O)Nc3cc(S(=O)(=O)N4CCOCC4)ccc3Cl)nc3ccccc3c2=O)cc1
  VDR inh: -11%

45	Cc1ccc(C(=O)Nc2ccccc2C(=O)O)cc1S(=O)(=O)Nc1ccccc1
  VDR inh: ?

46	CCOC(=O)C1=C(N)OC(CCl)=C(C#N)C1c1ccsc1 (stereo not drawn)
  VDR inh: -5%

47	COc1cc2oc(=O)cc(-c3ccc(-c4ccc(C(F)(F)F)cc4)cc3)c2c(OC)c1OC
  VDR inh: -1%&-5%

48	Cc1cc(NC(=O)C(=O)NCCN2CCN(S(C)(=O)=O)CC2)ccc1Br
  VDR inh: -6%

49	COc1ccc(-c2nc(C#N)c(NCCCN3CCOCC3)o2)cc1
  VDR inh: -4%

50	O=C(NC1CCN(Cc2ccccc2)CC1)c1cccc(Br)c1
  VDR inh: -9%

Six compounds already listed, sorted by their value in VDR inh, largest number first.
35	COc1cccc(C(=O)Nc2ccc(-c3nc4ccc(C)cc4s3)cc2)c1OC
  VDR inh: 5%

31	COc1ccc(NS(=O)(=O)c2cccc(C(=O)NCCc3ccc(S(N)(=O)=O)cc3)c2)cc1
  VDR inh: 3%

36	Cc1cc(C(=O)Nc2ccc(-n3c(C)nc4ccccc4c3=O)cc2)ccc1[N+](=O)[O-]
  VDR inh: -1%

41	COc1cccc(-c2nn(C)c3sc(C(=O)N4CCN(c5ccccn5)CC4)cc23)c1
  VDR inh: -2%

46	CCOC(=O)C1=C(N)OC(CCl)=C(C#N)C1c1ccsc1 (stereo not drawn)
  VDR inh: -5%

50	O=C(NC1CCN(Cc2ccccc2)CC1)c1cccc(Br)c1
  VDR inh: -9%

Later entries
51	COCCNC(=O)C(=O)Nc1cc2c3c(c1)C(C)C(=O)N3CCC2 (stereo not drawn)
  VDR inh: -6%

52	COCCn1c(-c2ccc(Cl)cc2)cnc1SCC(=O)NCc1cccs1
  VDR inh: -26%

53	CCN(Cc1ccccc1)c1ccc(/C=C(\C#N)c2ccccn2)cc1
  VDR inh: -11%

54	COC(=O)[C@]1(Cc2ccccc2)N[C@H](CN(C)C(=O)COc2ccccc2)[C@@H]2C(=O)N(Cc3ccccc3)C(=O)[C@@H]21
  VDR inh: -11%

55	CC(C)=C1C2CCC1C(C(=O)NCc1ccccc1)C2C(=O)O (stereo not drawn)
  VDR inh: 1%

56	C(=N\N(Cc1ccccc1)c1ccccc1)/c1ccco1
  VDR inh: -17%

57	COCCCNC(=O)Cn1c(=O)n(CC(=O)NCCc2ccc(OC)c(OC)c2)c(=O)c2sccc21
  VDR inh: ?

58	NS(=O)(=O)c1ccc(CNC(=O)c2cc(-c3cccnc3)nc3ccccc23)cc1
  VDR inh: ?

59	CCOC(=O)c1nn(-c2ccc(C)c(C)c2)cc1O
  VDR inh: 1%

60	CCOC(=O)c1c[nH]c(=O)c(Br)c1O
  VDR inh: -1%

61	CN(C)CCNC(=O)C(=O)NCC(c1cccnc1)N1CCN(c2ccc(F)cc2)CC1 (stereo not drawn)
  VDR inh: 6%

62	Cc1cnn(-c2cc(N/N=C/c3cccc(F)c3)ncn2)c1
  VDR inh: -15%

63	Cc1cc2occ(CC(=O)N(C)CC(=O)Nc3ccccc3Br)c2cc1C
  VDR inh: 10%

64	CS/C(N)=N/S(=O)(=O)c1ccc(NC(C)=O)cc1
  VDR inh: -5%

65	Cc1c(NC(=O)CSc2nnnn2-c2ccc(O)cc2)c(=O)n(-c2ccccc2)n1C
  VDR inh: 14%

66	CCC1(C)NC(c2ccc3c(c2)OCO3)=CC(c2ccccc2O)N1 (stereo not drawn)
  VDR inh: 0%

67	NC(=O)c1nsc(C(=O)N(CC(=O)NC2CCCC2)Cc2ccc3c(c2)OCO3)c1N
  VDR inh: -13%&-4%

68	CS(=O)(=O)N1CCN(CCN2C(=O)c3cccc4cccc(c34)C2=O)CC1
  VDR inh: -20%

69	COC(=O)c1sccc1S(=O)(=O)N1CCN(c2ccc(C(C)=O)cc2)CC1
  VDR inh: 12%

70	CCC(C)(C)NC(=O)C(c1cccc(OC)c1OC)N(C(=O)CCC(=O)Nc1cc(C)on1)c1ccc2c(c1)OCCO2 (stereo not drawn)
  VDR inh: 1%

71	CC(C)c1ccc(CNc2nc(-c3ccco3)nn2S(=O)(=O)c2ccccc2)cc1
  VDR inh: 3%

72	O=C(CCC(=O)N(CC(=O)NC1CCCC1)Cc1cccs1)Nc1nccs1
  VDR inh: ?

73	COc1ccc(/C(O)=C2/C(=O)C(=O)N(CC3CCCO3)C2c2ccc(OC)c(OC)c2)cc1 (stereo not drawn)
  VDR inh: 2%

74	O=C(NCCc1c[nH]c2ccccc12)/C(=C\c1cccs1)NC(=O)c1ccccc1
  VDR inh: -5%

75	Cc1ccc(NC(=O)C(Cc2ccccc2)NS(=O)(=O)c2ccc3c(c2)CCC(=O)N3)cc1 (stereo not drawn)
  VDR inh: -11%

Structural class, the entries above containing a cyano group (five)
39	CC1(C)Cc2c(ccc3ccccc23)/C(=C/C#N)N1
  VDR inh: -7%

42	CC(C)(C)C1=C(C#N)C(c2ccncc2)C(C#N)=C(N)O1 (stereo not drawn)
  VDR inh: -12%

46	CCOC(=O)C1=C(N)OC(CCl)=C(C#N)C1c1ccsc1 (stereo not drawn)
  VDR inh: -5%

49	COc1ccc(-c2nc(C#N)c(NCCCN3CCOCC3)o2)cc1
  VDR inh: -4%

53	CCN(Cc1ccccc1)c1ccc(/C=C(\C#N)c2ccccn2)cc1
  VDR inh: -11%

Later entries
76	C=CCNC(=O)CCCC(=O)NCC=C
  VDR inh: 14%

77	COc1cccc(-c2nc(NC3CC3)c3ccccc3n2)c1
  VDR inh: -18%

78	COc1ccc(OC)c(NC(=O)CNC(=O)Cn2cnc3ccccc3c2=O)c1
  VDR inh: 1%

79	S=C(Nc1cccc(Cl)c1Cl)NC1CCN(Cc2ccccc2)CC1
  VDR inh: -2%

80	CCC(CC)NC(=O)c1ccccc1Oc1ccccc1
  VDR inh: 2%

81	COc1cc(NC(=O)c2ccccc2Cl)c(OC)cc1NC(=O)CN1CCCCC1
  VDR inh: 9%

82	NS(=O)(=O)c1ccc(CNC(=O)c2ccc(NS(=O)(=O)c3cccs3)cc2)cc1
  VDR inh: -11%

83	CCCOc1ccc(/C=N/NC(=O)CSc2ccccn2)cc1OC
  VDR inh: 13%

84	Cc1cc(Cl)ccc1Oc1nccc(N(C)C)c1C#N
  VDR inh: -12%

85	COc1ccc(CCNC(=O)CCS(=O)(=O)c2ccc3c(c2)NC(=O)CO3)cc1OC
  VDR inh: 4%

86	Cc1csc(SCC(=O)Nc2ccccc2)n1
  VDR inh: 0%

87	O=C(NC1CCCCC1)[C@@H]1CC=C[C@@H]2CCN(C3CCCCC3)C(=O)[C@@H]21
  VDR inh: -14%

88	COC(=O)CCCC1=CC2=CC(=O)C(C)(OC(=O)CCc3ccccc3)C(=O)C2=CO1 (stereo not drawn)
  VDR inh: -5%&-1%

89	O=C(N/N=C/c1ccc(-c2cccc(C(F)(F)F)c2)o1)c1ccccc1Br
  VDR inh: -11%

90	O=[S@]1Oc2ccccc2-c2ccccc21
  VDR inh: 6.3µM*

91	COc1cc(C(=O)Nc2cccc3c2CCCC3)cc(OC)c1OC
  VDR inh: 4%

92	Cc1ccc(NC(=O)CN(C)C(=O)CNC(=O)c2sc3ccccc3c2Cl)cc1
  VDR inh: 5%

93	CCOc1cc([C@@H]2C[C@H]3CN(c4ccccc4)C(=O)[C@]34CCCN24)ccc1OC
  VDR inh: 1%

94	CC(C)NC(=O)c1ccccc1-c1nc(-c2ccccc2Cl)no1
  VDR inh: 19%

95	CCc1ccc(S(=O)(=O)c2nnn3c2nc(NCCc2ccccc2)c2sccc23)cc1
  VDR inh: 1%

96	CCOC(=O)c1ccc(NC(=O)CSc2nc3c(c(=O)n2C)SC(C)C3)cc1 (stereo not drawn)
  VDR inh: -9%

97	Cc1cc(C)c2cccc(N)c2n1
  VDR inh: 6%

98	Cc1ccc(NC(=O)C2CC(=O)n3c(nc4ccccc43)N2)cc1C (stereo not drawn)
  VDR inh: 12%

99	O=C(NCCCN1CCCC1=O)c1ccc(S(=O)(=O)Nc2cccc(C(F)(F)F)c2)cc1
  VDR inh: -11%

100	CC(C)N(C(=O)N1CCN(c2ccnc3cc(Cl)ccc23)CC1)C(C)C
  VDR inh: -2%

These rows are one share of the data; rates above refer to the full screens.
